# Screens deposited in PubChem BioAssay by National Center for Advancing Translational Sciences (NCATS).
# gsp agonist: gsp mutant agonism; gsp mutant cells, cAMP HTRF, 30 min; control for the full effect not named in the record; Potency, µM (highest dose often 76.9 µM), for the others: top-dose activation (cAMP increase), most hits filed as activators; actives 0.13% (n = 340,000); active = well fitted activation curve with a large enough effect; inconclusive = small, poorly fitted or top-dose-only effect, or another doubt; inactive = no such curve, though single readings can be large or run the other way; cell line not stated here;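 also: phosphodiesterase inhibitor Ro 20-1724 added with compounds to block cAMP breakdown; potency is read from the fitted curve at half-maximal effect; nearly all actives have a fitted effect of over 60% in size; about a fifth of the inactives were tested at one dose only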
#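 Cells stably selected in G418 were plated at 2000/well, grown 16-24 hr, then given compounds in DMSO with the PDE inhibitor […] (300 uM solution added) for 30 min at 37C; cAMP was read by HTRF.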
# ClpP mod: qHTS Assay for Activators of ClpP; ATP-dependent Clp protease proteolytic subunit (Bacillus subtilis (strain 168)), P80244; actives 1.9% (n = 340,000); Potency, µM (highest dose often 57.5 µM), for the others: top-dose activity change, negative = active; AID 651965, 2013; purified B. subtilis ClpP, FRET peptide cleavage, 20 min; active = well fitted falling curve with a large enough effect; inconclusive = small, poorly fitted or top-dose-only effect; inactive = no such curve, though single readings can be large or run the other way; also: potency is read from the fitted curve at half-maximal effect; the source files actives as falling curves though it sought activators and does not explain the sign; nearly all actives have a fitted effect of over 65% in size; many hits overshoot -100%
# Target sequence (P80244 whole entry, looked up): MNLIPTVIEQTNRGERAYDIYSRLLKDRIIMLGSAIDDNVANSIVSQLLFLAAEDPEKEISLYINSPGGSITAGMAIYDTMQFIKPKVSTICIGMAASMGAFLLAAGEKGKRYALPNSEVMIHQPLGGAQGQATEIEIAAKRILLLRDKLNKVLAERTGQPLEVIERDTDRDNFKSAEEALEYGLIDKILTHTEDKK
#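 FRET quenching reversal measured ClpP activation: 10 microg/mL B. subtilis ClpP at pH 8 with the FRET-FV decapeptide, read at 430 nm after 320 nm excitation. The 20-min minus 0-min signal was scaled between DMSO/no-enzyme wells and ADEP (5.8 microM final).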
# TRPV1 potentiator: potentiators of human vanilloid receptor 1 (TRPV1) | potentiation, % at 8.33 µM | Q8NER1 | TRPV1-expressing cells, Fluo-8 calcium influx, capsaicin EC20 potentiation; host cell line not named in the record; control for the full effect not named in the record | actives 0.02% (n = 320,000); active means potentiation above 80%; inconclusive means 30% to 80%; inactive means below 30%; also: 0% is about no effect
#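 Cells expressing TRPV1 were dye-loaded with Fluo-8 and read kinetically: 10 s baseline, 3 min after compound (agonist portion), then 2 min after EC20 capsaicin (allosteric enhancer portion). Calcium-bound dye fluorescence at 480/520 nm.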
# TRPML1 inh: human mucolipin-1 channel inhibition. Q9GZU1. TRPML1-inducible cells, Ca2+ dye fluorescence, FDSS; hits give low values; inhibition of EC80 agonist-evoked calcium signal. activity change, negative = inhibition, % (concentration not given with the values). actives 0.02% (n = 390,000); in the data active means activity change below about -50%; inconclusive means about -30% to -50%; inactive means above about -30%;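 also: stimulus is agonist 54-4 at its EC80 concentration; % is scaled to controls: 0 for no effect and ±100 for the full control effect; compound concentration not given in the record; the text of the record puts the active cut at -80%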
# Target sequence (Q9GZU1 whole entry, looked up): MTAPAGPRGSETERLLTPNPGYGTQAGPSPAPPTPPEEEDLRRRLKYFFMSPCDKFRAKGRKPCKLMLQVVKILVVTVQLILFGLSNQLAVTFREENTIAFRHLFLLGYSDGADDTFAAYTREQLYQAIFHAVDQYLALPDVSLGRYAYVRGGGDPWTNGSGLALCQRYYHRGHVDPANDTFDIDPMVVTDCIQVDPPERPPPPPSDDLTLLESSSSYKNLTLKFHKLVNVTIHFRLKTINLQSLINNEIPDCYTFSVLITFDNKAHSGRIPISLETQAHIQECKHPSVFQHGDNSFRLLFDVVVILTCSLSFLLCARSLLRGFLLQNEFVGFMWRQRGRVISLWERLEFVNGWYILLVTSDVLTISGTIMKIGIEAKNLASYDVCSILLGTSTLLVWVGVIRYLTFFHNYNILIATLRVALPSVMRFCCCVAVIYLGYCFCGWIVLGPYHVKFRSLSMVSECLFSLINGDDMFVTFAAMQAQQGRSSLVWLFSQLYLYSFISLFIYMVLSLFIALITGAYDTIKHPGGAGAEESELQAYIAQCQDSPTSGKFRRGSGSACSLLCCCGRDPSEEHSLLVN
#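 Calcium fluorescence in TRPML1-DL cells induced overnight with Tet: a 110 s read after compound pin addition, then a 110 s antagonist read after challenge with 54-4 at 4 uM final (EC80).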
# Menin-MLL FL inh: menin-MLL binding inhibition, fluorescein peptide. Fluorescence polarization, fluorescein-MLL peptide displacement from menin. FP activity change, % at 61.4 µM. 290,000 tested, under 10 active. AID 1766; inconclusive = falling polarisation curve, or a change in total fluorescence; inactive = total fluorescence flat and polarisation flat or rising; no compound was filed as active; the % refers to the polarisation; negative = inhibition;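 also: % of control where 0% means no effect; inhibitors lower the polarisation; unlabelled MLL peptide was the positive control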
# gsp antag: antagonizes gsp, the McCune-Albright syndrome mutation; gsp-mutant cells, cAMP HTRF, 30 min; control for the full effect not named in the record; Potency, µM (top dose mostly 76.9 µM), for inactives: at the top dose activity change, negative = inhibition, most hits filed as inhibitors; actives 0.4% (n = 340,000); AID 624288; active = falling curve of any shape with a large fitted effect; inconclusive = falling curve, mostly with a smaller effect; inactive = flat or rising curve; cell line not stated here;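 also: intracellular cAMP measured with PDE inhibitor Ro 20-1724 present during compound exposure; potency is read from the fitted curve at half-maximal effect; % is scaled to controls: 0 for no effect and ±100 for the full control effect; nearly all actives have a fitted effect of over 65% in size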
#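 HTRF cAMP read-out (cAMP-d2 plus anti-cAMP antibody-K in lysis buffer, 30 min RT). Before lysis, cells are exposed to compounds with […] for 30 min at 37C in DPBS containing Ca/Mg, BSA and Tween 20.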
# Sfp PPTase inh: Sfp phosphopantetheinyl transferase inhibition | actives 3.5% (n = 310,000) | Biochemical Sfp PPTase activity, qHTS | Potency, µM, for the others: max response, negative = inhibition, usual class: inhibitors | Q9F4F7; active = well fitted inhibition curve with a large enough effect; inconclusive = small, poorly fitted or top-dose-only effect, or another doubt; inactive = no such curve, though single readings can be large or run the other way;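 also: the enzyme is Sfp with the accession as filed and its product quenches rhodamine fluorescence; potency is read from the fitted curve at half-maximal effect; 0% = enzyme reaction without inhibitor and -100% = no enzyme wells; top concentration of the series not given in the record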
#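 After 15 min at room temperature with compound, 15 nM Sfp received 5 uM rhodamine-CoA plus 12.5 uM BHQ-2-ybbR (50 mM Hepes pH 7.6, 10 mM MgCl2). Rate came from the fluorescence difference over 30 min, ex 525/em 598 nm.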
# * hit, by the source's call; ? = inconclusive; · = not tested or not shown; & = joins results of further samples; [ ] = another dose, or the depositor's remark. No enrichment for hits; about 4.9% have a hit in one of these screens.
# The line under a structure holds: gsp agonist, ClpP mod, TRPV1 potentiator, TRPML1 inh, Menin-MLL FL inh, gsp antag, Sfp PPTase inh
Cc1nc(SCC(=O)Nc2cc(C)on2)c2c(=O)n(C)c(=O)n(C)c2n1
  ?, -0.5%, 10, 19, 3.3, 28%, -22%
Brc1ccc(-c2csc(N/N=C/c3cccnc3)n2)cc1
  -29%, ·, 3, -9, -6.0, 6%, ?
CN(C)S(=O)(=O)c1ccc(NC(=O)CSc2nnc(-c3ccco3)n2N)cc1
  -2%, ·, ·, -17, ·, 7%, ·
CN1C(=O)C(C)(C)c2cc(S(=O)(=O)N3CCC(C(=O)NCc4ccccc4Cl)CC3)ccc21
  9%, -5.0%, 15, -7, -4.1, -6%, 13%
Cc1cccc(N2CCN(C(=O)CSc3ccsc3[N+](=O)[O-])CC2C)c1 (stereo not given)
  -4%[15.4 µM], -1.3%, ?, 5, 6.2, -10%, -7%
CCn1c(-c2ccco2)nc2ccccc21
  7%, 32µM*, 0, 20, 4.1, 9%, 40µM*
NCCCCC(=O)O
  ·, 1.6%, -1, -16, 3.6&-1.7, -4%, -15%
O=C1CCNc2cc3ccccc3cc21
  -8%, 28µM*, 4, 10, -6.2, -7%, 14%
O=C(O)c1cccc2c1C(=O)c1cccc3snc-2c13
  4%[15.4 µM], ·, -2, -14, -15, 3%, 25%
COc1ccc(N(CC(=O)NCC2CCCO2)C(=O)CCC(=O)Nc2nccs2)c(OC)c1 (stereo not given)
  2%[15.4 µM], -0.2%, 3, 40, ·, 1%, 27%
CCOCCc1nnc(NC(=O)C2CCN(C(=O)c3ccco3)CC2)s1
  -43%[inhibitor], ·, -1, 5, 1.4, 1%, 7%
COc1cccc(C(=O)Cn2c(N3CCOCC3)nc3c2c(=O)n(C)c(=O)n3C)c1
  -6%, -2.9%, -1, 13, 2.9, -9%, 9%
COc1cccc(-c2cc(C(=O)NC3CCCC3)c3ccccc3n2)c1
  -14%, 21%, ·, 1, ·, -14%, ·
COc1cccc(CN2CCNC(=O)C2CC(=O)N(C)C2CCCCC2)c1OC (stereo not given)
  -15%, -0.5%, ·, -4, ·, 7%, ·
CCCCOCCCNC(=O)c1ccc2c(c1)OCO2
  4%, -0.9%, 2, 14, 1.0, -6%, -9%

# Five of the entries above in order of the TRPML1 inh value, high to low:
Structure,TRPML1 inh
Cc1nc(SCC(=O)Nc2cc(C)on2)c2c(=O)n(C)c(=O)n(C)c2n1,19
CCCCOCCCNC(=O)c1ccc2c(c1)OCO2,14
O=C1CCNc2cc3ccccc3cc21,10
Brc1ccc(-c2csc(N/N=C/c3cccnc3)n2)cc1,-9
CN(C)S(=O)(=O)c1ccc(NC(=O)CSc2nnc(-c3ccco3)n2N)cc1,-17

# Later entries.
# The line under a structure holds: gsp agonist, ClpP mod, TRPV1 potentiator, TRPML1 inh, Menin-MLL FL inh, gsp antag, Sfp PPTase inh
Cc1ccc(Cn2c(SCC(=O)N/N=C/c3ccccc3OCC(=O)O)nc3ccccc32)cc1
  ?, -4.1%, ?, -4, 9.1, 7%, 12%
CC(OC(=O)CCOc1ccccc1)C(=O)Nc1ccc(Cl)cn1 (stereo not given)
  ?, -2.8%, -8, -10, ·, -16%, -4%
Clc1cccc(OCc2nnc(-c3ccccc3Br)o2)c1
  2%[15.4 µM], ·, -6, -2, 3.9, -11%, 3%
O=C(N/N=C/c1c[nH]c2ccccc12)C1COc2ccccc2O1 (stereo not given)
  ?, ?, 11, 1, 3.1, 7%, 9%
Cc1nc2ccccn2c1C(=O)N/N=C/c1ccc2c(c1)OCO2
  0%, -13%, -4, -7, ·, 1%, -1%
N#Cc1cc2cc3c(cc2nc1N1CCCCC1)OCCO3
  -21%, -28%, -3, 1, ?, 15%, 28µM*
c1ccc(N2CCN(c3ccccc3)C2c2cccnc2)cc1
  8%, -3.1%, -2, 38, 1.1, 2%[15.4 µM], -3%
CN(C)Cc1c(C(=O)N/N=C/C=C/c2ccccc2)nnn1-c1nonc1N
  ?, ·, ?, 6, -8.4, -3%, 10%
CC(C(=O)OCC(=O)N(C)C1(C#N)CCCCC1)N1C(=O)c2ccccc2C1=O (stereo not given)
  ?, -0.5%, -10, 15, ·, 28%, ·
COc1ccc2c(c1)OC/C(=C/c1cccs1)C2=O
  3%, 2.0%, -5, 65, 3.1, -20%, -27%
CCNC(=O)N(C(=O)NCC)n1c(C)nnc1C
  ?, 0.5%, 4, 6, -0.2, 4%, 6%
COC(=O)Cn1nc(-c2ccc(C)c(S(=O)(=O)N(C)C)c2)c2ccccc2c1=O
  12%, -0.1%, 2, 12, 0.2, ?, 8%
COc1ccc(S(=O)(=O)N2CCC3(CC2)CC(=O)c2ccccc2O3)cc1C
  13%[15.4 µM], -7.6%, 0, -11, ·, -1%, ·
COC(=O)CCC(=O)N1CCOCCOCCN(C(=O)CCC(=O)OC)CCOCCOCC1
  9%, 1.0%, -5, 10, 2.3, ?, 4%
CCC(C)(C)NC(=O)C(c1ccc(OC)cc1)N(C(=O)CCC(=O)Nc1cc(C)on1)c1cccc(F)c1 (stereo not given)
  -1%[15.4 µM], ·, 1, -8, 3.4, ·, 11%

# Later entries.
# The line under a structure holds: gsp agonist, ClpP mod, TRPV1 potentiator, TRPML1 inh, Menin-MLL FL inh, gsp antag, Sfp PPTase inh
Cc1ccc(SCCSc2nc(C)cc(=O)[nH]2)cc1
  -4%, 0.0%, 6, -11, 1.2, 3%, -4%
CC(C)C(NC(=O)COc1ccccc1)C(=O)O (stereo not given)
  -1%, 0.4%, 11, -10, 4.4, 12%, 9%
CCNC(=O)C1Cc2ccccc2CN1S(=O)(=O)c1ccc(F)cc1 (stereo not given)
  -2%, 1.3%, -17, 14, -4.1, ?, -17%
c1ccc(-c2nc(NCc3cccnc3)c3oc4ccccc4c3n2)cc1
  -11%, -8.1%, 5, 20, 3.0, -11%, -17%
COc1ccc(-c2oc3ccc(-c4ccc(OC)nc4)cc3c2-c2ccc(OC)cc2)cc1
  18%, 4.0%, ·, 0, ·, 7%, ·
Oc1ccc(/C=N/Nc2ncc(Cl)cc2Cl)cc1
  -12%, ·, -5, 27, 4.6, -15%, 2%
O=C(COC(=O)Cc1n[nH]c(=O)c2ccccc12)Nc1cccc(C(F)(F)F)c1
  13%, ·, -13, 1, 0.4, -4%, 22%
CC(C)C(NC(=O)OCc1ccccc1)C(=O)OCC(=O)NCc1ccco1 (stereo not given)
  -1%, -1.1%, 2, -14, 2.3, -4%, 56µM*
Clc1ccc2c(NCc3ccccn3)ncnc2c1
  4%, -8.0%, -2, -8, 6.1, -7%, -9%
CCCNCC(=O)Nc1sc2c(c1C(=O)Nc1c(C)n(C)n(-c3ccccc3)c1=O)CCCC2
  -12%, -2.5%, ·, 2, ·, ·, ·
NNC(=O)CN1C(c2ccccc2Br)=Nc2ccc(Br)cc2C1c1ccccc1 (stereo not given)
  8%, 47%, -1, -25, -0.6, -17%, 0%
COC(=O)c1ccccc1Oc1ccc(NC(=O)C(C)(C)CCl)cc1
  2%[15.4 µM], ·, -6, -4, ?, -4%, 8%
Cc1ccc(C(=O)Nc2ccc3c(c2)nc2n3CCSC2)cc1
  ?, -0.1%, 1, -1, 5.2, 3%, 13%
O=C(CSc1ccc2c(c1)OCCO2)Nc1ncc(Cl)cc1Cl
  22%, 0.3%, 0, 2, 1.5, -20%, -8%
COc1cccc(CNC(=O)CCCn2ncn3c(cc4occc43)c2=O)c1
  2%, -3.5%&-0.9%, -6, -1&-6, ·, -15%, 14%

# The listing continues.
# The line under a structure holds: gsp agonist, ClpP mod, TRPV1 potentiator, TRPML1 inh, Menin-MLL FL inh, gsp antag, Sfp PPTase inh
Cc1cc(C)n(-c2ccc(C)c(Cl)c2)n1
  -18%, 1.5%, 8, -7, 6.5, -17%, 8%
CSc1nc(-c2ccc(Cl)cc2)nn1C(=O)c1ccco1
  4%, 0.1%, 18, -5, 2.5, -18%, -2%
Cc1cccc(/C(N)=N/OC(=O)Cc2ccccc2)c1
  -13%, ·, 14, 4, 5.5, 10%, 18%
CC1CC(C)CN(CCCNC(=O)c2ccc(CS(=O)(=O)Cc3cccc(Cl)c3)o2)C1 (stereo not given)
  16%, -1.7%, 1, -18, ·, 9%, 20%
Cc1cccn2c(=O)c3cc(C(=O)NC4CCCC4)c(=N)n(Cc4ccc(F)cc4)c3nc12
  -2%, 3.6%, 5, 3, 5.6, -18%, ?
O=C(O)c1cc(=O)c2ccccc2[nH]1
  ·, -14%, 4, ·, 102&1.1&-0.7&-3.7&12[activator], 13%, -24%&-15%&-36%&-22%
Cc1ccccc1NS(=O)(=O)c1cc(C(=O)NCc2ccco2)ccc1C
  7%, -3.9%, 16, 0, 2.8, -12%, 1%

# Structures listed so far that have an NH in an aromatic ring:
# The line under a structure holds: gsp agonist, ClpP mod, TRPV1 potentiator, TRPML1 inh, Menin-MLL FL inh, gsp antag, Sfp PPTase inh
O=C(N/N=C/c1c[nH]c2ccccc12)C1COc2ccccc2O1 (stereo not given)
  ?, ?, 11, 1, 3.1, 7%, 9%
Cc1ccc(SCCSc2nc(C)cc(=O)[nH]2)cc1
  -4%, 0.0%, 6, -11, 1.2, 3%, -4%
O=C(COC(=O)Cc1n[nH]c(=O)c2ccccc12)Nc1cccc(C(F)(F)F)c1
  13%, ·, -13, 1, 0.4, -4%, 22%
O=C(O)c1cc(=O)c2ccccc2[nH]1
  ·, -14%, 4, ·, 102&1.1&-0.7&-3.7&12[activator], 13%, -24%&-15%&-36%&-22%
